KCNQ2 pot – enhances the rat KCNQ2 potassium channel; O88943; 310,000 compounds, 0.54% hits; AID 2239; B-score at 10 µM; CHO-K1 KCNQ2, FluxOR thallium flux fluorescence; stronger effect = higher value;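 active means fluorescence ratio B-score at least 3 SD of library B-scores, with initial fluorescence B-score within 3 SD, cut at about 5.3 in these data; same plate scores as AID 2156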;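 further: B-score of peak minus minimum over baseline fluorescence ratio after K+ and Tl+ stimulus; positive B-score means potentiation of KCNQ2 with more thallium influx and brighter signal; only the inactives scoring about 0 or higher are listed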
Target sequence (O88943 whole entry, looked up): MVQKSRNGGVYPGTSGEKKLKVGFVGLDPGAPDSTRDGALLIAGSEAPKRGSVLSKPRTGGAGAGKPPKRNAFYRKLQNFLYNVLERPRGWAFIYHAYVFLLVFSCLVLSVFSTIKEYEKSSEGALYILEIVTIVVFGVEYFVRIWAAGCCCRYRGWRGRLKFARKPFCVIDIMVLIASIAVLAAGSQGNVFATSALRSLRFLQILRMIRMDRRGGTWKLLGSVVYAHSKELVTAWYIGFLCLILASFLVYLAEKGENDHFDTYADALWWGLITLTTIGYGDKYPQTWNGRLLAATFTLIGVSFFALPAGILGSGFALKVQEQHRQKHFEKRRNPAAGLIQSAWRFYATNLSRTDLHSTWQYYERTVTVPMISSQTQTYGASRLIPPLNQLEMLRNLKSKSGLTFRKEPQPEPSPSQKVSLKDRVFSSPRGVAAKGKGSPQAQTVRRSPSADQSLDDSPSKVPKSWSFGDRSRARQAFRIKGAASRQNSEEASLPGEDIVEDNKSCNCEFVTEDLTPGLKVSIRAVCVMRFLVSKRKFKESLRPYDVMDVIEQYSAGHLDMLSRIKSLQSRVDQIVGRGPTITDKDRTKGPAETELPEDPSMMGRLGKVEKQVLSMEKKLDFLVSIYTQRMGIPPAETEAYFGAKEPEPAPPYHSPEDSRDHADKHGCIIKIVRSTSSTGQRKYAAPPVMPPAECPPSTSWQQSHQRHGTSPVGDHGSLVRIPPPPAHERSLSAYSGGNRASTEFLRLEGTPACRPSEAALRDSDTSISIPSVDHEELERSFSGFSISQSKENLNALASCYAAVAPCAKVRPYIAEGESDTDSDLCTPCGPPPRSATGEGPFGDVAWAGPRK
KCNQ2 pot baseline – second read-out of KCNQ2 pot, no call of its own (marks repeat the call); B-score; compound at 10 µM; measured here: initial fluorescence intensity artifact check;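 brightness before thallium and not channel activity; 0 = typical well and far values either way flag optical interference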
An asterisk follows results filed as active. The list is partial (hit frequency here may not be typical).

How did O=C(CSc1n[nH]c(=O)n1-c1ccc2c(c1)OCCO2)Nc1ccccc1 do in these assays?
KCNQ2 pot: 1.9; KCNQ2 pot baseline: -0.93

Results for O=C(c1cc(N2CCCCC2)nc2ccccc12)N1CCOCC1 ?
KCNQ2 pot: 0.02; KCNQ2 pot baseline: 0.02

How did Cc1ccc(NC(=S)NC(=O)c2cncc(Br)c2)c(C)c1 do in these assays?
KCNQ2 pot: 0.47; KCNQ2 pot baseline: 1.4

What do the screens show for `O=C(COC(=O)CCC(=O)c1cccs1)NC(=O)c1ccc(OC(F)F)cc1`?
KCNQ2 pot: 1.2; KCNQ2 pot baseline: 0.54

Results for CC1=CC2=NC(=O)CC(C)(C(=O)N(CC(=O)NC3CCCC3)Cc3ccccc3)N2C=C1 (stereo unspecified) ?
KCNQ2 pot: 0.02; KCNQ2 pot baseline: 0.72

Results for O=C(Nc1ccc(Br)cc1)c1ccc(Br)c(S(=O)(=O)Nc2cccnc2)c1 ?
KCNQ2 pot: 1.5; KCNQ2 pot baseline: 0.47

Results for COC(=O)c1sccc1NC(=O)CSc1ccc(Cl)cc1 ?
KCNQ2 pot: 0.2; KCNQ2 pot baseline: 0.8

What do the screens show for `CCN(CC)Cc1c(O)c(Cl)cc2c(C)cc(=O)oc12`?
KCNQ2 pot: 0.13; KCNQ2 pot baseline: 0.35

How did CC(=O)NC(c1ccccc1)c1cc([N+](=O)[O-])c2cccnc2c1O (stereo unspecified) do in these assays?
KCNQ2 pot: 2.1; KCNQ2 pot baseline: -1.1

What do the screens show for `COCCNC(=O)c1onc(CSc2ccc(F)cc2)c1C(=O)NCCOC`?
KCNQ2 pot: 0.57; KCNQ2 pot baseline: -1.6

Results for O=c1c2c3c(sc2[nH]c(=S)n1Cc1ccco1)CCC3 ?
KCNQ2 pot: 4.7; KCNQ2 pot baseline: 0.01

Results for Cc1nn(CCOc2ccccc2)c(=O)n1-c1ccccc1F ?
KCNQ2 pot: 0.3; KCNQ2 pot baseline: -1.1

Sorted by count of non-hydrogen atoms (ascending): part of the list above
Results for O=c1c2c3c(sc2[nH]c(=S)n1Cc1ccco1)CCC3 ?
KCNQ2 pot: 4.7; KCNQ2 pot baseline: 0.01

Results for COC(=O)c1sccc1NC(=O)CSc1ccc(Cl)cc1 ?
KCNQ2 pot: 0.2; KCNQ2 pot baseline: 0.8

Results for Cc1nn(CCOc2ccccc2)c(=O)n1-c1ccccc1F ?
KCNQ2 pot: 0.3; KCNQ2 pot baseline: -1.1

Results for O=C(c1cc(N2CCCCC2)nc2ccccc12)N1CCOCC1 ?
KCNQ2 pot: 0.02; KCNQ2 pot baseline: 0.02

How did CC(=O)NC(c1ccccc1)c1cc([N+](=O)[O-])c2cccnc2c1O (stereo unspecified) do in these assays?
KCNQ2 pot: 2.1; KCNQ2 pot baseline: -1.1

Results for O=C(Nc1ccc(Br)cc1)c1ccc(Br)c(S(=O)(=O)Nc2cccnc2)c1 ?
KCNQ2 pot: 1.5; KCNQ2 pot baseline: 0.47

What do the screens show for `O=C(COC(=O)CCC(=O)c1cccs1)NC(=O)c1ccc(OC(F)F)cc1`?
KCNQ2 pot: 1.2; KCNQ2 pot baseline: 0.54

Results for CC1=CC2=NC(=O)CC(C)(C(=O)N(CC(=O)NC3CCCC3)Cc3ccccc3)N2C=C1 (stereo unspecified) ?
KCNQ2 pot: 0.02; KCNQ2 pot baseline: 0.72

Next section.
How did CCOc1ccccc1Nc1nc(N2CCCC2)nc(N2CCOCC2)n1 do in these assays?
KCNQ2 pot: 1.2; KCNQ2 pot baseline: -1

Results for Nc1nc(NCC2CCCO2)nc(Nc2ccccc2)c1[N+](=O)[O-] (stereo unspecified) ?
KCNQ2 pot: 0.25; KCNQ2 pot baseline: -0.44

How did O=C(CSc1nn(-c2ccc(Cl)cc2)c(=S)s1)N1CCN(C(=O)c2ccco2)CC1 do in these assays?
KCNQ2 pot: 0.6; KCNQ2 pot baseline: 0.02

What do the screens show for `COc1ccc(-c2cc(C)no2)cc1S(=O)(=O)NCc1ccc(OC(C)C)cc1`?
KCNQ2 pot: 0.49; KCNQ2 pot baseline: 0.4

Results for CCc1ccc(-c2nc(SCC(=O)N(C)C3CCS(=O)(=O)C3)n[nH]2)cc1 (stereo unspecified) ?
KCNQ2 pot: 0.21; KCNQ2 pot baseline: -1.3

Results for O=C(CCC(=O)Nc1ccc(Br)cc1)N/N=C/c1ccccc1O ?
KCNQ2 pot: 1.3; KCNQ2 pot baseline: -0.75

How did NS(=O)(=O)c1ccc(CNC(=O)/C=C/c2c(F)cccc2Cl)cc1 do in these assays?
KCNQ2 pot: 0.57; KCNQ2 pot baseline: 0

What do the screens show for `CCC(Sc1nncn1C)C(=O)Nc1nnc(-c2ccc(Cl)cc2)s1` (stereo unspecified)?
KCNQ2 pot: 1.1; KCNQ2 pot baseline: -0.03

How did CCC(/C=N/NC(=O)C1COc2ccccc2O1)CC (stereo unspecified) do in these assays?
KCNQ2 pot: 0.08; KCNQ2 pot baseline: 0.35

What do the screens show for `O=C(O)c1cnn2c(C(F)(F)F)cc(-c3ccccc3)nc12`?
KCNQ2 pot: 0.05; KCNQ2 pot baseline: -0.04

Results for Cc1ccc(NS(=O)(=O)c2ccc3[nH]c(=O)oc3c2)c(C)c1 ?
KCNQ2 pot: 1.1; KCNQ2 pot baseline: -0.36

How did CCC(=O)Nc1nc(C)c(-c2csc(Nc3ccccn3)n2)s1 do in these assays?
KCNQ2 pot: 0.06; KCNQ2 pot baseline: -0.59

By substructure, the entries above containing a furan ring, fused or not.
Results for O=c1c2c3c(sc2[nH]c(=S)n1Cc1ccco1)CCC3 ?
KCNQ2 pot: 4.7; KCNQ2 pot baseline: 0.01

How did O=C(CSc1nn(-c2ccc(Cl)cc2)c(=S)s1)N1CCN(C(=O)c2ccco2)CC1 do in these assays?
KCNQ2 pot: 0.6; KCNQ2 pot baseline: 0.02

Next part:
What do the screens show for `CCNC(=O)CN(c1ccc(C)cc1)S(=O)(=O)c1ccccc1`?
KCNQ2 pot: 1; KCNQ2 pot baseline: 0.14

Results for O=c1[nH]c2cc(NCCO)c([N+](=O)[O-])cc2[nH]1 ?
KCNQ2 pot: 0.42; KCNQ2 pot baseline: 0.51

How did CCCNC(=O)c1cc(SC)ccc1Cl do in these assays?
KCNQ2 pot: 1.5; KCNQ2 pot baseline: -1.1

What do the screens show for `O=c1c2ccccc2nnn1CSc1nnc(Nc2ccccc2)s1`?
KCNQ2 pot: 1.4; KCNQ2 pot baseline: 0.73

How did COC(=O)CNC(=O)c1cccs1 do in these assays?
KCNQ2 pot: 1; KCNQ2 pot baseline: 0.46

How did CC1(C)Cc2cccc(OCC(=O)NCc3cccs3)c2O1 do in these assays?
KCNQ2 pot: 0.5; KCNQ2 pot baseline: -0.72

Results for O=C(NC1CCCCC1)c1ccc(Cn2cc(Br)cn2)o1 ?
KCNQ2 pot: 1.6; KCNQ2 pot baseline: 0.56

What do the screens show for `Cc1nc(C)n(C(C)CC(=O)O)n1` (stereo unspecified)?
KCNQ2 pot: 0.18; KCNQ2 pot baseline: -1.5

Results for CC(C)c1ccc(CN2CC(C(=O)O)CC2=O)cc1 (stereo unspecified) ?
KCNQ2 pot: 0.02; KCNQ2 pot baseline: 0.69

Results for CC(C)(C)c1ccc(/C([O-])=C(/C(=S)NCc2ccco2)[n+]2ccccc2)cc1 ?
KCNQ2 pot: 1.1; KCNQ2 pot baseline: -0.06

What do the screens show for `Cc1nn(C(=O)/C(C#N)=C/N(C)C)c(C)c1C`?
KCNQ2 pot: 1.9; KCNQ2 pot baseline: -1.8

How did CCOc1ccc(Nc2nc(NCc3ccco3)nc(N)c2[N+](=O)[O-])cc1 do in these assays?
KCNQ2 pot: 0.05; KCNQ2 pot baseline: 1.1

Results for O=CN1CCN(C(=O)CC(c2ccccc2)c2cc(Br)ccc2O)CC1 (stereo unspecified) ?
KCNQ2 pot: 0.56; KCNQ2 pot baseline: -0.44

What do the screens show for `Cc1[nH]c2ccc(F)cc2c(=O)c1SC(F)(F)C(F)F`?
KCNQ2 pot: 0.43; KCNQ2 pot baseline: -1.3

What do the screens show for `Cc1ccc2c(c1)N(CC(=O)N1CCCCCC1)C(=O)CO2`?
KCNQ2 pot: 0.31; KCNQ2 pot baseline: 0

How did Cn1nc(NC(=O)C(F)(F)F)c2ncc(-c3ccc(Cl)cc3)nc21 do in these assays?
KCNQ2 pot: 0.66; KCNQ2 pot baseline: 0.74

How did Cc1c(NC(=O)C(C)OC(=O)c2cc(Cl)ccc2O)c(=O)n(-c2ccccc2)n1C (stereo unspecified) do in these assays?
KCNQ2 pot: 0.21; KCNQ2 pot baseline: 0.86

How did COc1ccc(C(=S)N2CCN(c3cccc(Cl)c3)CC2)c(OC)c1 do in these assays?
KCNQ2 pot: 0.67; KCNQ2 pot baseline: 0.7

Results for Cc1occc1C(=O)Nc1nn[nH]n1 ?
KCNQ2 pot: 0.68; KCNQ2 pot baseline: -0.52

Results for NC(=O)c1cccc(S(=O)(=O)N2CC(c3ccccc3)CC2=O)c1 (stereo unspecified) ?
KCNQ2 pot: 1; KCNQ2 pot baseline: -0.09

How did COCCN(C(=O)COC(=O)C1=COCCO1)c1c(N)n(Cc2ccccc2)c(=O)[nH]c1=O do in these assays?
KCNQ2 pot: 0.95; KCNQ2 pot baseline: -0.09

Results for COc1ccc(CC(=O)NCCc2cnc[nH]2)cc1 ?
KCNQ2 pot: 0.69; KCNQ2 pot baseline: 0.78

What do the screens show for `COc1ccc(C(C)C)cc1S(=O)(=O)N1CC(C)OC(C)C1` (stereo unspecified)?
KCNQ2 pot: 4.1; KCNQ2 pot baseline: -0.12

Results for Cn1c(C(=O)O)c(CC(=O)N2CCC(Cc3ccccc3)CC2)c2ccccc21 ?
KCNQ2 pot: 0.48; KCNQ2 pot baseline: -1.7

How did O=C(NCc1ccco1)c1nn2cccnc2c1Cl do in these assays?
KCNQ2 pot: 1.7; KCNQ2 pot baseline: 0.78

What do the screens show for `CN(C(=O)COC(=O)c1ccc(S(=O)(=O)N2CCCC2)cc1)c1ccccc1`?
KCNQ2 pot: 0.3; KCNQ2 pot baseline: -0.02

Results for C=CCn1c(Cc2cccs2)nnc1SCC(=O)NC1CC1 ?
KCNQ2 pot: 0.56; KCNQ2 pot baseline: 0.11

Results for CC1CCCCC12NC(=O)N(Cn1nnc3ccccc3c1=O)C2=O (stereo unspecified) ?
KCNQ2 pot: 0.05; KCNQ2 pot baseline: -1.3

What do the screens show for `Cc1cc(C)cc(Nc2nc3c([nH]2)c(=O)n(C)c(=O)n3C)c1`?
KCNQ2 pot: 0.21; KCNQ2 pot baseline: 0.11

What do the screens show for `CCCCn1nc(CC(=O)O)c2ccccc2c1=O`?
KCNQ2 pot: 0.05; KCNQ2 pot baseline: 2.7

How did COc1nc(C#N)c(N2CCOCC2)o1 do in these assays?
KCNQ2 pot: 0.28; KCNQ2 pot baseline: 0.51

Results for CCCCCCOc1ccc(OCC(O)CN2C(=O)NC(C)(C)C2=O)cc1 (stereo unspecified) ?
KCNQ2 pot: 0.61; KCNQ2 pot baseline: 2.1

How did COc1cc(SC)ccc1C(=O)OCc1nc2ccsc2c(=O)[nH]1 do in these assays?
KCNQ2 pot: 1.8; KCNQ2 pot baseline: -1.1

What do the screens show for `Cn1c(=O)c2c(nc(-n3ccnc3)n2Cc2ccc(Cl)cc2Cl)n(C)c1=O`?
KCNQ2 pot: 1; KCNQ2 pot baseline: -0.12

What do the screens show for `CC(C)CNS(=O)(=O)c1ccc(CCC(=O)NCc2ccncc2)cc1`?
KCNQ2 pot: 0.68; KCNQ2 pot baseline: 1.4

Results for COC(=O)c1cc(OC)ccc1-c1ccc(OC)cc1 ?
KCNQ2 pot: 1.7; KCNQ2 pot baseline: -0.64

Results for O=C(Nc1ccccc1C(=O)N1CCOCC1)c1ccncc1 ?
KCNQ2 pot: 1; KCNQ2 pot baseline: -0.84

Results for COc1ccccc1NC(=O)CNC(=O)c1ccc(F)cc1 ?
KCNQ2 pot: 0.44; KCNQ2 pot baseline: -0.26

Results for CCC(C)[C@H](NC(=O)C1CC(=O)N(c2ccc3c(c2)OCCO3)C1)C(=O)N1CCCCC1 (stereo partly specified) ?
KCNQ2 pot: 0.35; KCNQ2 pot baseline: -0.6

Results for CN(CCCC(=O)Nc1ccc(OC(F)F)cc1)S(=O)(=O)c1ccc(F)cc1 ?
KCNQ2 pot: 1.9; KCNQ2 pot baseline: 0.33

What do the screens show for `COc1cc(C(=O)Oc2c(CN3CCOCC3)cc(Cl)c3cccnc23)cc(OC)c1OC`?
KCNQ2 pot: 0.15; KCNQ2 pot baseline: 0.34

Results for Cc1cc(/C=C2\SC(=O)N(C)C2=O)c(C)n1-c1ccc(S(N)(=O)=O)cc1 ?
KCNQ2 pot: 1.4; KCNQ2 pot baseline: -0.59

What do the screens show for `COc1cccc(C2C3(C#N)C(N)=NC(OC)(OC)C23C#N)c1` (stereo unspecified)?
KCNQ2 pot: 0.08; KCNQ2 pot baseline: 1.9

What do the screens show for `Cc1ccc(C)c(-n2c(SCC(N)=O)nnc2-c2ccccn2)c1`?
KCNQ2 pot: 0.02; KCNQ2 pot baseline: 0.01

Results for Cc1ccc2[nH]c(C)c(CC(=O)O)c2c1 ?
KCNQ2 pot: 2; KCNQ2 pot baseline: -2.6

How did CC(C)(C)NS(=O)(=O)c1ccc(C(=O)Nc2ccc3c(c2)OCO3)cc1 do in these assays?
KCNQ2 pot: 0.4; KCNQ2 pot baseline: 0.23

What do the screens show for `O=C(Nc1ccc([N+](=O)[O-])cc1)N1CCCCCC1`?
KCNQ2 pot: 0.01; KCNQ2 pot baseline: -3.2

How did CCOC(=O)C1=C(N)N(c2ccc(N3CCCCC3)cc2)C(=O)C1 do in these assays?
KCNQ2 pot: 0.6; KCNQ2 pot baseline: -1.1

What do the screens show for `CC(NCc1ccccc1OC1CCCC1)c1ccccc1` (stereo unspecified)?
KCNQ2 pot: 1.7; KCNQ2 pot baseline: -0.99

Screening results: PubChem BioAssay, Johns Hopkins Ion Channel Center
